Source: PubChem BioAssay
Prx2 Sm inh – Schistosoma mansoni Prx2 inhibition; S. mansoni Prx2 activity coupled to TGR/GSH (TGR is thioredoxin glutathione reductase), NADPH fluorescence loss, qHTS; some inactives read as strong as hits; Potency, µM; 65,000 tested, 0.07% active; AID 448; active means full or partial inhibition curve with a strong effect at the top dose; inconclusive means weaker partial or single-point curve; inactive means no accepted curve; note: series up to 57 µM; many of its hits are not listed in these tables
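Coupled assay in which S. mansoni TGR passes NADPH reducing equivalents via glutathione to Prx2, which reduces H2O2. Compounds were preincubated 15 min at room temperature with 25 nM TGR/50 nM Prx2 mix. Kinetic NADPH fluorescence loss (ex 365/em 450 nm) was monitored.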
LT uptake inh – anthrax lethal toxin internalization inhibition | Cells, anthrax lethal toxin internalization, FRET ratio (460/530) | Potency, µM (top dose mostly 40 µM), inactives show at the highest dose activity change, negative = inhibition, usual class: inhibitors | 70,000 tested, 0.67% active | AID 912; active = well fitted falling ratio curve with the 530 nm signal flat; inconclusive = other ratio curves, or a change in one channel alone; inactive = flat curves in the ratio and both channels; the % refers to the ratio; note: % is set by controls: 0 for no effect and ±100 for the full control effect; nearly all actives have a fitted effect of over 50% in size; tested in ME-180 cells; beta-lactamase reporter
An asterisk follows results filed as active; & = joins results of further samples; [ ] = another dose, or the depositor's remark. Potency is the fitted concentration of half-maximal effect. These rows are one share of the data, so the mix of outcomes need not match the whole.

Screening Clc1ccc(N2CCN(Cc3c[nH]c4ncccc34)CC2)cc1 returned Prx2 Sm inh >57&>57 and LT uptake inh -2.8%&-3.3%.
`CCS(=O)(=O)N1CCN(C(C)CCc2ccccc2)CC1` (centres undefined) gave LT uptake inh -14.2%.
Screening CCCc1nc(SCc2ccccn2)c2c(=O)n(C)c(=O)n(C)c2n1 returned Prx2 Sm inh >57 and LT uptake inh -13.0%.
For COc1ccc(Cl)cc1NC(=O)NC(C)c1ccncc1 (centres undefined) the results were Prx2 Sm inh >57 and LT uptake inh 1.2%.
Screening COc1ccc(OC)c(C(=O)c2coc3ccc(O)cc23)c1 returned LT uptake inh -27.8%.
CCOc1ccccc1Oc1coc2cc(OC(=O)c3ccco3)ccc2c1=O was read as Prx2 Sm inh >57 and LT uptake inh -17.1%.
CCCNS(=O)(=O)c1ccc(OCC(=O)Nc2ccccc2F)cc1 was read as Prx2 Sm inh >57 and LT uptake inh inconclusive.
For COc1ccc(CN2C(=O)[C@@H]3C(c4ccccc4Cl)=NO[C@@H]3C2=O)cc1 the results were Prx2 Sm inh >57 and LT uptake inh -1.7%.
O=C(NC1CCCCC1)N(CCN1CCCC1)Cc1cc2cc3c(cc2[nH]c1=O)OCCO3 was read as Prx2 Sm inh >57 and LT uptake inh 28.3%.
For O=C(NCCCN1CCCC1=O)c1nnc(Cc2c(F)cccc2Cl)o1 the results were Prx2 Sm inh >57 and LT uptake inh -10.3%.
Cc1cc(C)n(-c2nc(C)nc(N)n2)n1 was read as Prx2 Sm inh >57 and LT uptake inh -11.5%.
Screening CC1CN(c2nc3ccccc3nc2C(C#N)C(=O)OC2CCCCC2)CC(C)O1 (centres undefined) returned Prx2 Sm inh >57 and LT uptake inh 3.5%.
CC1=C(C)CC(C(=O)Nc2cccc(Cl)c2)C(C(=O)O)C1 (centres undefined) was read as Prx2 Sm inh >57 and LT uptake inh 4.0%.
CC(=O)Nc1cccc(NC(=O)CSc2nnc(Cc3cccn3C)n2-c2ccc(C)cc2)c1 was read as Prx2 Sm inh >57 and LT uptake inh -8.4%.
O=c1c2ccccc2nc(SCc2nnc(-c3ccccc3)o2)n1-c1ccc(F)cc1F was read as Prx2 Sm inh >57 and LT uptake inh inconclusive.
Screening CCC(C)Nc1ccc(NC(C)CC)cc1 (centres undefined) returned LT uptake inh inconclusive.
`CCCCSc1nc2c(cc1C#N)CCC2` gave Prx2 Sm inh >57 and LT uptake inh -12.6%.
For Nn1c(-c2ccccn2)nnc1-c1ccccn1 the results were Prx2 Sm inh >57 and LT uptake inh 11.3%.
Screening O=C1C=C[C@@H](O)[C@@H]2[C@H]3C(=O)N(c4ccc(F)cc4F)C(=O)[C@@H]3CC[C@@H]12 returned LT uptake inh -2.9%[8 µM].
Screening CCOC(=O)c1cccc(S(=O)(=O)N(CCO)Cc2cc3cc(OC)ccc3[nH]c2=O)c1 returned Prx2 Sm inh >57 and LT uptake inh -6.9%.

Brought forward from above: 6 entries, then new ones.
O=c1c2ccccc2nc(SCc2nnc(-c3ccccc3)o2)n1-c1ccc(F)cc1F was read as Prx2 Sm inh >57 and LT uptake inh inconclusive.
Screening CCC(C)Nc1ccc(NC(C)CC)cc1 (centres undefined) returned LT uptake inh inconclusive.
`CCCCSc1nc2c(cc1C#N)CCC2` gave Prx2 Sm inh >57 and LT uptake inh -12.6%.
For Nn1c(-c2ccccn2)nnc1-c1ccccn1 the results were Prx2 Sm inh >57 and LT uptake inh 11.3%.
Screening O=C1C=C[C@@H](O)[C@@H]2[C@H]3C(=O)N(c4ccc(F)cc4F)C(=O)[C@@H]3CC[C@@H]12 returned LT uptake inh -2.9%[8 µM].
Screening CCOC(=O)c1cccc(S(=O)(=O)N(CCO)Cc2cc3cc(OC)ccc3[nH]c2=O)c1 returned Prx2 Sm inh >57 and LT uptake inh -6.9%.
Screening Cc1ccc(N2C(=O)CC(NCc3ccc4c(c3)OCO4)C2=O)cc1Cl (centres undefined) returned LT uptake inh -11.8%.
CCCCNS(=O)(=O)c1ccc(OC)c2ncccc12 was read as Prx2 Sm inh >57 and LT uptake inh 15.4%.
Cc1cccc2sc(NC(=O)Cn3cccc3)nc12 was read as Prx2 Sm inh >57 and LT uptake inh -13.0%.
O=C(OCC(=O)N1CCN(c2ccccc2)CC1)C1=COCCO1 was read as Prx2 Sm inh >57 and LT uptake inh -2.8%.
For CN1[C@H](Cc2ccccc2)C=C[C@]1(C)C(=O)NCC1CC1 the results were LT uptake inh 20.9%.
`Cc1ccc(S(=O)(=O)NCCSc2nnnn2-c2cc(C)ccc2C)cc1` gave Prx2 Sm inh >57 and LT uptake inh -25.1%.
For Cc1cccc(C(=O)O)c1C[C@H]1NCC[C@H]2c3ccccc3N[C@@H]12 the results were Prx2 Sm inh >57 and LT uptake inh -4.8%[8 µM].
CCOc1ccc(OCC)c(NC(=O)C2CCN(S(=O)(=O)c3cnc[nH]3)CC2)c1 was read as Prx2 Sm inh >57 and LT uptake inh 6.7%.
For c1ccc(CCc2ccccc2-c2nc(-c3cccnc3)no2)cc1 the results were Prx2 Sm inh >57 and LT uptake inh inconclusive.
For CN(C)C(=O)c1ccc(-c2ccc3ncnc(Nc4ccc(F)cc4)c3c2)cc1 the results were Prx2 Sm inh >57 and LT uptake inh inconclusive.
`COC(=O)[C@@H]1C[C@@H]1[C@@H](NP(=O)(c1ccccc1)c1ccccc1)c1ccccc1` gave LT uptake inh -5.9%.
COc1ccc(CCNC2CC(=O)N(CCc3ccccc3)C2=O)cc1OC (centres undefined) was read as Prx2 Sm inh >57 and LT uptake inh -0.7%.
`CCc1ccc(OCCCN=C(C)c2c(O)n(C)c(=O)n(C)c2=O)cc1` gave LT uptake inh -9.9%.
Screening O=C(Nc1ccc2c(c1)OCO2)N1CCN(c2cccc(C(F)(F)F)c2)CC1 returned Prx2 Sm inh >57 and LT uptake inh -22.5%.
`COc1ccccc1C1C=C(c2ccc(Cl)cc2)Nc2nc(NS(C)(=O)=O)nn21` (centres undefined) gave LT uptake inh inconclusive.
For CC(O)c1nc2ccccc2n1C1CCCCC1 (centres undefined) the results were Prx2 Sm inh >57 and LT uptake inh -7.9%.
CCOC(=O)Cc1csc(NC(=O)CSc2nnnn2-c2ccc(CC)cc2)n1 was read as Prx2 Sm inh >57 and LT uptake inh inconclusive.
CC(C)C(=O)Nc1cccc(NC(=O)CCN2C(=O)c3ccccc3S2(=O)=O)c1 was read as Prx2 Sm inh >57 and LT uptake inh 6.6%.
For CCCCOc1[nH]c2nc(-c3ccco3)n(Cc3ccco3)c(=N)c2c1C#N the results were Prx2 Sm inh >57 and LT uptake inh -1.2%.
CCn1cc(C(=O)NC2CCCC2)c(=O)c2cc(S(=O)(=O)N3CCOCC3)ccc21 was read as Prx2 Sm inh >57 and LT uptake inh inconclusive.
CCCOc1ccc(C2C(C#N)=C(N)Oc3nc[nH]c(=O)c32)cc1OC (centres undefined) was read as Prx2 Sm inh >57 and LT uptake inh 5.9%.
CCOC(=O)c1ccc(NC(=O)NC2CCN(CC(=O)NCc3ccc4c(c3)OCO4)CC2)cc1 was read as Prx2 Sm inh >57 and LT uptake inh -3.8%.
For CCOC(=O)c1cnc(-n2nc(C)cc2C)nc1Nc1ccc(N(C)C)cc1 the results were Prx2 Sm inh >57 and LT uptake inh -7.3%.
For CCOc1ccc(S(=O)(=O)n2ccnc2)c2ccccc12 the results were Prx2 Sm inh >57 and LT uptake inh 2.8%.
Cc1cccc(NC(=O)CN(C)S(=O)(=O)c2ccc(Cl)cc2)n1 was read as Prx2 Sm inh >57 and LT uptake inh -23.0%.
For CCN(CC)S(=O)(=O)c1csc(C(=O)NC2CCCCC2)c1 the results were Prx2 Sm inh >57 and LT uptake inh 2.8%.
O=C(O)C(NS(=O)(=O)c1cccc2cccnc12)c1ccccc1 (centres undefined) was read as Prx2 Sm inh >57 and LT uptake inh -4.9%.
`CCC(Oc1ccccc1)C(=O)NCc1cccnc1` (centres undefined) gave Prx2 Sm inh >57 and LT uptake inh 11.1%.
Screening OC1CCN(c2c3c(nc4cc(-c5cccc(F)c5)nn24)CCCC3)CC1 returned Prx2 Sm inh >57 and LT uptake inh -25.9%.
Screening CCn1c(=O)cc(SCC(=O)Nc2cccnc2)c2ccccc21 returned Prx2 Sm inh >57 and LT uptake inh -18.4%.
FC(F)(F)c1cc(-c2ccccc2)nc(NCC2CCCO2)n1 (centres undefined) was read as Prx2 Sm inh >57 and LT uptake inh -25.3%.
For c1ccc2oc(C3=NCCN3)cc2c1 the results were Prx2 Sm inh >57 and LT uptake inh -16.2%.
Screening CC(C)C(C(=O)Nc1cccnc1)N1C(=O)c2ccccc2C1=O (centres undefined) returned Prx2 Sm inh >57 and LT uptake inh 2.3%.
Screening COC(=O)c1[nH]c2cc(OC)c(OC)cc2c1NC(=O)CN1CCN(Cc2ccccc2)CC1 returned Prx2 Sm inh >57 and LT uptake inh inconclusive.
Screening COCCCNC(=O)C1CCCN(C(=O)Nc2ccc(OC)cc2)C1 (centres undefined) returned Prx2 Sm inh >57 and LT uptake inh 6.0%.
Screening COc1cc(C)nc(NS(=O)(=O)c2ccccc2)n1 returned Prx2 Sm inh >57 and LT uptake inh -4.4%.
`C=CCSc1nnc(Cc2c(C)[nH]c3ccccc23)o1` gave Prx2 Sm inh >57 and LT uptake inh -7.7%.
CC1CCC2C(=O)OC(CN3C(=O)c4ccccc4C3=O)CN2C1c1ccc(Br)cc1 (centres undefined) was read as LT uptake inh -24.9%[8 µM].
`Cc1csc(=Nc2ccc(S(=O)(=O)N3CCOCC3)cc2)n1Cc1ccco1` gave Prx2 Sm inh >57 and LT uptake inh inconclusive.
`O=C(c1cccc(OC(F)F)c1)N1CCN(c2ncccn2)CC1` gave Prx2 Sm inh >57 and LT uptake inh -2.0%.
CC(=O)c1cc(C#N)c(SCC(=O)OC(C)(C)C)nc1C was read as Prx2 Sm inh >57 and LT uptake inh -11.5%.
Cc1ccc2cc(C(c3nnnn3C3CCCC3)N3CCN(c4ccccc4)CC3)c(=O)[nH]c2c1 (centres undefined) was read as Prx2 Sm inh >57 and LT uptake inh inconclusive.
COc1cc2c(cc1OC)[C@@H]1CC(=O)[C@@H](CC(C)C)CN1CC2 was read as LT uptake inh -13.3%.
For COc1ccc(CC(=O)Nc2c3c(nn2-c2cccc(C)c2C)CS(=O)(=O)C3)cc1 the results were Prx2 Sm inh >57 and LT uptake inh -3.8%.
`CCN(CC)c1ccc2c(Cl)c(Br)c(=O)oc2c1` gave Prx2 Sm inh >57 and LT uptake inh inconclusive.
`CCc1ccc(C(=O)N2CCCC2)s1` gave Prx2 Sm inh >57 and LT uptake inh 7.9%.
`COc1ccc(Oc2ncc3nc(-c4cn(C)c5ccccc45)c(=O)n(C)c3n2)cc1` gave Prx2 Sm inh >57 and LT uptake inh inconclusive.
Screening CCOc1cccc(C2NCc3ccccc3-n3cccc32)c1O (centres undefined) returned Prx2 Sm inh >57 and LT uptake inh -1.2%.
For Cn1cc(Cl)c(C(=O)NC2CCCCCC2)n1 the results were Prx2 Sm inh >57 and LT uptake inh 3.2%.
Screening C=CCNC(=O)C1CCN(S(=O)(=O)c2ccc(Br)cc2)CC1 returned Prx2 Sm inh >57 and LT uptake inh -11.2%.
For NCC[C@H](O)C(=O)N[C@H]1C[C@@H](N)[C@@H](O[C@H]2O[C@@H](CN)[C@@H](O)[C@@H](O)[C@@H]2N)[C@@H](O[C@H]2O[C@@H](CO)[C@@H](O)[C@@H]2O)[C@@H]1O the results were Prx2 Sm inh >57 and LT uptake inh 3.0%[3.58 µM].
Screening NC(=O)CSc1nnc(C2CC2)n1Cc1ccccc1 returned Prx2 Sm inh >57 and LT uptake inh -10.3%.
Screening COc1ccc(C2C(CC(=O)O)=C(O)C(=O)N2c2ccccc2)cc1 (centres undefined) returned Prx2 Sm inh >57 and LT uptake inh -5.6%.
CCOc1ccc(-c2cc(CCCC(=O)NCc3ccco3)no2)cc1 was read as Prx2 Sm inh >57 and LT uptake inh -2.4%.
`O=C1CCC(c2ccc(-n3ccnc3)cc2)=NN1` gave Prx2 Sm inh >57 and LT uptake inh 5.1%.
`Cc1cccc(-c2nc(C#N)c(N3CCCCCC3)o2)c1` gave Prx2 Sm inh >57 and LT uptake inh -25.7%.
`CC(=O)OC[C@@H]1O[C@@H](O/N=C2/C[C@@H](O)[C@@H](O)[C@@H]3[C@@H]4C(=O)N(C(C)(C)C)C(=O)[C@H]4CC[C@@H]23)[C@H](OC(C)=O)[C@H](OC(C)=O)[C@@H]1OC(C)=O` gave LT uptake inh inconclusive.
`CC(=O)Nc1ccc(NS(=O)(=O)c2cn(C)c(=O)n(C)c2=O)cc1` gave Prx2 Sm inh >57 and LT uptake inh 9.2%.
Screening CC(C)(C)C1CCc2onc(C(=O)Nc3cnn(Cc4ccc(F)cc4)c3)c2C1 (centres undefined) returned Prx2 Sm inh >57 and LT uptake inh -7.7%.
For O=C(Nc1ncnc2c1CCC2)C12CC3CC(CC(C3)C1)C2 the results were Prx2 Sm inh >57 and LT uptake inh -2.4%.
`CC(C)C(c1nnnn1CC1CCCO1)N1CCN(Cc2ccc3c(c2)OCO3)CC1` (centres undefined) gave Prx2 Sm inh >57 and LT uptake inh -11.9%.
Screening COc1ccc(-c2cc(C(=O)NCC(C)C)no2)cc1 returned Prx2 Sm inh >57 and LT uptake inh 25.3%.
CCOC(=O)c1c(C)nc2c(C#N)cnn2c1C was read as Prx2 Sm inh >57.
`COC(=O)CSc1nnc(C2COc3ccccc3O2)n1-c1ccccc1` (centres undefined) gave Prx2 Sm inh >57 and LT uptake inh inconclusive.
